HTT prom inh: Primary qHTS for Identification of Small Molecule Inhibitors of Huntingtin Promoter Activity; Potency, µM (doses to about 57.5 µM), inactives show at the top dose activity change, negative = inhibition, most hits filed as inhibitors; HEK293 HTT promoter firefly luciferase reporter (activity 0% = vehicle and -100% = no light), 24 h; hit rate 0.93% among 48,000; AID 1508623, 2021; active means well fitted inhibition curve with a large enough effect; inconclusive means small, poorly fitted or top-dose-only effect; inactive means no such curve, though single readings can be large or run the other way; further: nearly all actives have a fitted effect of over 50% in size
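HEK293 cells carrying firefly luciferase reporters were seeded at 2,500 per well in Opti-MEM and cultured for 24 h. They were then treated with compounds at up to 57.5 uM final for 24 h at 37 degrees C before Dual-Glo luminescence readout.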
PMP22 txn prim: Cell-based coincidence reporter assay to measure PMP22 gene transcription in S16 Pmp22-F2sN cells - Primary screen; Potency, µM (top dose mostly 57.5 µM), for inactives: top-dose activity change, negative = inhibition, usual class: inhibitors; hit rate 2% among 43,000; S16 Pmp22-F2sN Schwann cells (luciferase reporters placed in the Pmp22 gene), FLuc/NLuc coincidence luminescence, 24 h; active = clear falling dose curves in both reporters; inconclusive = both reporters move, but less clearly or upward; inactive = either reporter flat; the % is the NLuc reporter signal; further: on the % scale 0 is the no-effect control and ±100 the full control effect; some results filed as inactive show a strong effect at the top dose
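Schwann cells carrying the coincidence reporter were exposed to library compounds for 24 h at 37C, then lysed and read for FLuc and, after quenching, NLuc luminescence on a CCD imager.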
* marks the source's active call; other numbers are inactive results; ? = inconclusive; · = not tested or not shown; & = joins results of further samples; [ ] = remark or other dose. Potency means the concentration at half of the fitted maximal effect.

canonical_smiles | HTT prom inh | PMP22 txn prim
Cc1c(Cl)cccc1NC(=O)Cn1cc2c(n1)CCCC2 | -21% | 4%
O=C(Nc1ccccc1F)C(Cc1ccccc1)n1cccc1 (centres undefined) | -1% | -14%
COc1ccc(-n2cc(C(=O)NCc3ccc(Cl)cc3)c3ccccc3c2=O)cc1 | -2% | -41%
O=C(Nc1cc(Cl)ccc1Cl)c1cc(S(=O)(=O)NCCc2ccccc2)ccc1F | ? | -12%
O=C(Cn1ccnc1[N+](=O)[O-])NCc1ccccc1 | 10% | ·
O=C(Nc1ccc(OC(F)(F)F)cc1)C1CCCN(S(=O)(=O)c2ccc(Br)s2)C1 (centres undefined) | -6% | -8%
CCN(Cc1ccccc1)C(=O)CN1C(=O)COc2ccc(S(=O)(=O)NC3CCCC3)cc21 | -12% | -6%
CCCNC(=O)c1ccc2c(c1)nc(C)n2-c1cccc(C)c1 | -4% | ?
O=S(=O)(NCCc1csc2nc(-c3ccc(F)cc3)nn12)c1ccc(Br)cc1 | ? | -40%
COc1cccc(N2CCN(S(=O)(=O)c3ccc(-c4cc(C(F)(F)F)on4)s3)CC2)c1 | 5% | -1%
Cc1ccc(C(=O)NCC(c2ccc3c(c2)OCO3)N2CCN(c3ccc(F)cc3)CC2)cc1 (centres undefined) | 22µM* | -11%
Cn1c(=O)c2c(SCC(=O)NCC3CCCO3)nc(-c3ccccc3F)nc2n(C)c1=O (centres undefined) | -8% | -6%
Cc1ccc(-c2cn3c(n2)sc2cc(C(=O)NC(C)C45CC6CC(CC(C6)C4)C5)ccc23)cc1 (centres undefined) | 28% | 1%
Cc1ccc(NC(=O)Cn2c(=O)nc(-c3ccccc3)c3ccccc32)cc1 | -13% | 0%
COC(=O)C1=C(C)NC(=O)NC1c1cn(-c2ccccc2)nc1-c1ccc(OC)c(Cl)c1 (centres undefined) | ? | -16%
CCC(=O)N1CCc2cc(Br)cc(S(=O)(=O)NCc3cccc(OC)c3)c21 | 2% | -33%
CNS(=O)(=O)c1ccc(OC)c(-c2nnc3c4ccccc4c(C)nn23)c1 | -8% | -6%
COc1ccc(CNC(=O)CN(C)S(=O)(=O)c2ccc3nc(C)sc3c2)cc1 | -17% | -1%
COc1cccc2c1cc1c(=O)n(CC(=O)N3CCN(c4cccc(Cl)c4)CC3)nc(C)n12 | 3% | -16%
COc1ccc([C@@H]2CC(=O)c3c(O)cc(O[C@@H]4O[C@H](CO[C@@H]5O[C@@H](C)[C@H](O)[C@@H](O)[C@@H]5O)[C@@H](O)[C@H](O)[C@@H]4O)cc3O2)cc1O | ? | ·
Cc1cccc(N(CC(=O)NCCSCc2cccc(Cl)c2)S(=O)(=O)c2ccccc2)c1C | ? | ?
CCOC(=O)c1cc(-c2ccc(C)cc2)n(CC(=O)Nc2ccc(OC)c(Cl)c2)c1C | ? | ?
CCOCCCn1c(=N)c(C(=O)NCc2ccco2)cc2c(=O)n3ccccc3nc21 | -5% | ?
Cc1ccc(CNC(=O)c2cc(=O)c3cc(C)c(C)cc3o2)cc1 | -11% | ?
COC1=C(OC)C(=O)C(CC=C(C)CCC=C(C)CCC=C(C)CCC=C(C)CCC=C(C)CCC=C(C)CCC=C(C)CCC=C(C)CCC=C(C)CCC=C(C)C)=C(C)C1=O | -5% | ·
Fc1ccc(-c2noc3ncnc(N4CCN(c5ccccc5)CC4)c23)cc1 | -25% | -18%
Cc1cccc(CNC(=O)C2CCN(S(=O)(=O)c3ccc4c(c3)CCCN4C(=O)C3CCC3)CC2)c1 | ? | ?
CCCCNC(=O)CN1C(=O)CSc2ccc(S(=O)(=O)N3CCC(C)CC3)cc21 | -10% | 2%
COc1ccccc1-c1noc(CCC(=O)Nc2ccc(C)cc2C)n1 | -11% | -17%
NC(=O)c1ccc(N(C(N)=O)c2c(F)cccc2F)nc1-c1ccc(F)cc1F | -16% | ·
CCCOc1ccc(C(=O)Nc2ccc3oc(-c4cccc(Cl)c4Cl)nc3c2)cc1 | ? | -30%
Cc1ccc2c(=O)cc(C(=O)Nc3c(C)n(C)n(-c4ccccc4)c3=O)oc2c1 | -10%[11.5 µM] | 1%
COc1ccccc1NC(=O)Cn1c(=O)n(CCC(=O)NCC2CCCO2)c(=O)c2cc(OC)c(OC)cc21 (centres undefined) | -10% | -2%
Cc1oc(-c2ccc(C(=O)NCCc3ccc(Cl)cc3)cc2)nc1CSc1ccccc1 | ? | ?
Cc1ccccc1CNC(=O)C(=O)NCC(c1ccco1)S(=O)(=O)c1ccccc1 (centres undefined) | -15% | -6%
COC(=O)c1cc2occc2n1CC(=O)Nc1ccc(C)cc1Cl | -15% | -11%
Clc1cccc(-n2cc(-c3ccccc3)c3c(N4CCCCC4)ncnc32)c1 | -13% | 1%
CCOC(=O)c1ccc(NC(=O)CC2Sc3ccc(C(F)(F)F)cc3NC2=O)cc1 (centres undefined) | ? | -22%
CC(C)c1ccc(C2c3c(-c4ccccc4O)n[nH]c3C(=O)N2Cc2ccncc2)cc1 (centres undefined) | ? | ?
CCOc1ccc(CNC(=O)C2CCN(C(=O)N3CC(CC)Oc4ccc(C)cc43)CC2)cc1OC (centres undefined) | -24% | -23%
COc1ccc(CNC(=O)c2cnn3c(C)c(Cc4c(F)cccc4Cl)c(C)nc23)cc1 | -30% | ?
COc1ccc(OC)c(CCNC(=O)c2c(C)nn(-c3ccc(F)cc3)c2-n2cccc2)c1 | ? | ?
CCCCc1nn2c(=O)cc(COC(=O)c3cccc(OC)c3)nc2s1 | -16% | -28%
CCOC(=O)c1sc(N2C(=O)c3oc4ccc(F)cc4c(=O)c3C2c2ccc(O)cc2)nc1C (centres undefined) | -12% | 34%
COc1ccc(CCNC(=O)C(C)n2nc(C)c3sc4ccccc4c3c2=O)c(OC)c1 (centres undefined) | -13% | -10%
CCCCn1cc(S(=O)(=O)c2ccc(OC)cc2)c(=O)c2cc(F)c(N3CCCC3)cc21 | 12% | 3%
CCc1cccc(NC(=O)C2CCCN2S(=O)(=O)c2ccc3c(c2)n(C)c(=O)c(=O)n3C)c1 (centres undefined) | -9% | -20%
COc1ccc(-c2noc(COc3cc(C)c(Br)c(C)c3)n2)cc1OC | -2% | -18%
CC(C(=O)Nc1cc(C(F)(F)F)ccc1Cl)n1nnc2sc3c(c2c1=O)CCCC3 (centres undefined) | -7% | -10%
CCOc1ccc(C2C(C(=O)Nc3ccccc3C)=C(C)Nc3nnnn32)cc1 (centres undefined) | -13% | ?

Some values from the results shown:
In PMP22 txn prim, `CCOC(=O)c1ccc(NC(=O)CC2Sc3ccc(C(F)(F)F)cc3NC2=O)cc1` (centres undefined) shows -22%
In HTT prom inh, `CCCCc1nn2c(=O)cc(COC(=O)c3cccc(OC)c3)nc2s1` shows -16%

Next part
canonical_smiles | HTT prom inh | PMP22 txn prim
O=C(NCc1ccccc1Cl)C1CCCN(C(=O)c2cnn(-c3ccc(F)cc3)c2-n2cccc2)C1 (centres undefined) | ? | ?
CCc1ccc(NC(=O)C2(c3cccs3)CCOCC2)cc1 | -6% | 1%
O=C(Nc1ccc2c(c1)OCO2)c1cc(-c2ccc(Br)cc2)on1 | -5%[11.5 µM] | -23%
COc1ccc(-c2nc(CS(=O)CC(=O)NCCc3ccccc3)c(C)o2)cc1OC (centres undefined) | 4% | -37%
CCCS(=O)(=O)Nc1cc(-c2cn3cccc(C)c3n2)ccc1C | 18% | -60%
CCSc1nnc2c(n1)OC(c1ccc(OC)cc1OC)N(C(C)=O)c1ccccc1-2 (centres undefined) | -21% | ?
CCCCn1c(=N)c(C(=O)NC2CCCCC2)cc2c(=O)n3cccc(C)c3nc21 | -4%[11.5 µM] | -3%
CCCCN(CC)CCCNC(=O)C1CCCN(c2ncnc3c2nc2n3CCCCC2)C1 (centres undefined) | -19%[11.5 µM] | -16%
CCn1c(SCc2ccccc2)nnc1-c1nonc1NC(C)=O | ? | -26%
CCOc1ccccc1NC(=O)C(C)Sc1nc(-c2ccccc2)c(C#N)c(=O)[nH]1 (centres undefined) | -20% | -56%
Cc1ccc(S(=O)(=O)Nc2nc3n(n2)C(c2ccccc2Cl)C=C(c2ccccc2)N3)cc1 (centres undefined) | -20% | -66%
COc1c(N2CCNC(C)C2)c(F)cc2c(=O)c(C(=O)O)cn(C3CC3)c12 (centres undefined) | 0%&-1% | ·
CCOc1ccccc1CNC(=O)C1CCN(S(=O)(=O)c2ccc3[nH]c(=O)ccc3c2)CC1 | -4% | -27%
Cc1ccccc1CNC(=O)Cn1ccc2cc(S(=O)(=O)N3CCCCC3)ccc21 | ? | -23%
CCOC(=O)C(CC)n1nc(C)c2c(C)n(-c3ccc(C)cc3)nc2c1=O (centres undefined) | ? | -45%
CC(=O)NC(C)c1ccc(Oc2ccc(OC(C)C)cc2)cc1 (centres undefined) | 11% | ·
Cc1ccc(N2CC(NC(=O)CCc3ccccc3)CC2=O)cc1C (centres undefined) | -16% | 20%
CCN(CC)CCCNC(=O)c1nn(C)c2c1CSc1ccccc1-2 | -12% | -6%
COc1ccc2c(c1)CCc1c(C(=O)Nc3c(C)nn(Cc4ccccc4Cl)c3C)noc1-2 | ? | -23%
COC(=O)N1CCCc2cc(S(=O)(=O)N3CCN(c4ccccc4)CC3)ccc21 | -19% | -27%
COc1ccccc1NC(=O)c1ncoc1-c1ccco1 | -15% | 2%
O=C(c1ccc2c(c1)N(Cc1ccc(Cl)cc1)C(=O)c1ccccc1S2=O)N1CCOCC1 (centres undefined) | -25% | -4%
COc1ccccc1C(=O)Nc1ccc(C(=O)OCc2cc(=O)n3nc(C)sc3n2)cc1 | -3% | ?
Cc1ccc(C)c(N2CCN(CCCNC(=O)Nc3ccc(Cl)cc3)CC2)c1 | ? | ?
Cc1cccc(-n2c(=O)c3c(c4cc(C)ccc4n3C)n(C)c2=O)c1 | -13% | 23%

Next part; the last 7 above are carried over.
canonical_smiles | HTT prom inh | PMP22 txn prim
COc1ccc2c(c1)CCc1c(C(=O)Nc3c(C)nn(Cc4ccccc4Cl)c3C)noc1-2 | ? | -23%
COC(=O)N1CCCc2cc(S(=O)(=O)N3CCN(c4ccccc4)CC3)ccc21 | -19% | -27%
COc1ccccc1NC(=O)c1ncoc1-c1ccco1 | -15% | 2%
O=C(c1ccc2c(c1)N(Cc1ccc(Cl)cc1)C(=O)c1ccccc1S2=O)N1CCOCC1 (centres undefined) | -25% | -4%
COc1ccccc1C(=O)Nc1ccc(C(=O)OCc2cc(=O)n3nc(C)sc3n2)cc1 | -3% | ?
Cc1ccc(C)c(N2CCN(CCCNC(=O)Nc3ccc(Cl)cc3)CC2)c1 | ? | ?
Cc1cccc(-n2c(=O)c3c(c4cc(C)ccc4n3C)n(C)c2=O)c1 | -13% | 23%
Cc1ccc(C)n1-c1nnc(N2CCCC(C(=O)NCc3cccc(Cl)c3)C2)s1 (centres undefined) | ? | ?
CCn1c2ccccc2c2cc(NC(=O)COc3ccc(C)c(C)c3)ccc21 | 0% | ?
O=C(Nc1cc(F)ccc1F)c1ccc(CN2CC(=O)N3CCCCC3C2=O)cc1 (centres undefined) | -23% | ?
O=C(NCc1ccc(Cl)cc1)C1CCN(c2ncnc3c2nc2n3CCCCC2)CC1 | 2% | -1%
Cc1ccc(Cl)cc1NC(=O)c1oc2c(c1C)-c1[nH]ncc1CC2 | 57%[activator] | -23%
CCOc1ccc(S(=O)(=O)N(CC(=O)NCCSCc2ccc(C)cc2)c2ccccc2)cc1 | -11% | -7%
COc1ccc(/C=C/C(=O)Nc2cc(-c3nc4ccccc4o3)ccc2OC)cc1 | 6% | ?
COc1cccc2c1C(=O)c1c(O)c3c(c(O)c1C2=O)C[C@@](O)(C(=O)CO)C[C@H]3O[C@H]1C[C@H](N)[C@H](O)[C@H](C)O1 | ? | ·
CCOc1ccc(NC(=O)CCC(=O)N2CC(C)Oc3ccc(C)cc32)cc1 (centres undefined) | -23% | ?
Cc1ccccc1Nc1nnc(-c2ccc(C)c(S(=O)(=O)NCC3CCCO3)c2)c2ccccc12 (centres undefined) | ? | ?
O=C(O)c1sc(Nc2ccccc2)nc1-c1ccccc1 | -6% | -31%
Cc1ccccc1NC(=O)Cn1c(=O)n(-c2ccc(CC(=O)NCC3CCCO3)cc2)c(=O)c2ccccc21 (centres undefined) | -2% | -36%
CCn1c(C)c(C)c2cc(C(=O)NCc3cccc(C)c3)ccc21 | -4% | -1%
CCc1ccccc1NC(=O)CCc1c(C)nn(-c2ccc(N3CCOCC3)nn2)c1C | -7% | ?

Compound profiles, from the list above. Order of screens: HTT prom inh, PMP22 txn prim
Profile of COc1ccc(/C=C/C(=O)Nc2cc(-c3nc4ccccc4o3)ccc2OC)cc1 = 6%, ?
Profile of CCn1c(C)c(C)c2cc(C(=O)NCc3cccc(C)c3)ccc21 = -4%, -1%
